Compound activity deposited in PubChem by ICCB-Longwood Screening Facility, Harvard Medical School.
GIV-Gai inh = inhibitors of GIV GBA-motif binding to rat Galpha-i3. P08753. Galpha-i3/FITC-GIV peptide fluorescence polarization, 90 min; stronger effect = lower value; scaled: aluminum fluoride 0%, vehicle 100%. percent of control (FP), % (concentration not given with the values). actives 0.42% (n = 210,000). AID 1224905;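 active = replicate mean at 85% of control or lower, very high polarization wells dropped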;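 also: wells of about 15 µL received 100 nL stock; the first replicate is given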
Target sequence (P08753 whole entry, looked up): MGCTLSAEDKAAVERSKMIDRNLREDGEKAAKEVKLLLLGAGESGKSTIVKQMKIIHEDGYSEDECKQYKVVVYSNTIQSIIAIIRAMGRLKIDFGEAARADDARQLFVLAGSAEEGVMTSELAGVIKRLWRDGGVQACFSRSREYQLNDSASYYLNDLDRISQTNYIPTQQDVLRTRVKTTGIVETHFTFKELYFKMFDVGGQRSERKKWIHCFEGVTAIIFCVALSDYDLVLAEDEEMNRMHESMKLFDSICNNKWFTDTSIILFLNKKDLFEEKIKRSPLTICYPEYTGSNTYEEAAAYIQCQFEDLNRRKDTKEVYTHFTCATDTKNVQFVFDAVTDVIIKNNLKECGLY
HCMV NEC inh = cytomegalovirus nuclear egress complex inhibition; inhibition, % (no concentration beside the values); AID 1918969; actives 0.15% (n = 190,000); HTRF UL50-UL53 interaction, normalized percent inhibition;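 active = both replicates at 50% or more, plus weaker picks with an unusually low signal ratio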;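 also: stock transfer was 100 nL into about 20 µL; 0% = negative control wells and 100% = wells with untagged competitor protein; inactives centre near -12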
Sa growth 42C = S. aureus growth inhibition; S. aureus RN4220 growth, OD600, 20 h, 42 °C; stronger effect = lower value; relative growth, % (concentration not given with the values); AID 720641; actives 0.53% (n = 170,000);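 active = growth at 42 °C up to 50% and 20 or more points under that at 30 °C, or under 10% at both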;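 also: 300 nL library stock went into each well; scaled to the means of positive and negative controls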
Sa growth 42C second temp = second read-out of Sa growth 42C, no call of its own (marks repeat the call); relative growth, %; measured here: growth at 30 °C;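 optical density after 20 h as mean of two plates; 100% = untreated growth and lower means inhibition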
The depositor's hits bear a star; · = no result given; & = joins results of further samples.

| canonical_smiles | GIV-Gai inh | HCMV NEC inh | Sa growth 42C | Sa growth 42C second temp |
| --- | --- | --- | --- | --- |
| COc1ccc(NC(=O)CN(C)Cc2ccccc2)cc1 | · | -28 | 99 | 83 |
| O=C(CC1C(=O)NC2CCCCC2N1C(=O)Nc1cccc(Cl)c1)Nc1ccc2c(c1)OCO2 (centres undefined) | 106 | -5 | 106 | 49 |
| O=C(Cc1noc2ccccc12)N1CCCCC1c1nc2ccccc2s1 (centres undefined) | · | -20 | 86 | 87 |
| CC(=O)Oc1ccc2cc(-c3nnc(-c4ccccc4)o3)c(=O)oc2c1 | 173 | -32 | · | · |
| CCN1C(=O)C(NC(C)=O)c2ccccc21 (centres undefined) | 113 | -23 | 99 | 95 |
| O=C(O)CCc1ccc(Cl)cc1Cl | 96 | -11 | 114 | 95 |
| O=C(CSc1ccc2nnc(-c3ccccc3)n2n1)NCC1CCCO1 (centres undefined) | 106 | -2 | 86 | 85 |
| O=C1c2ccccc2NC(c2ccccc2)N1Cc1ccco1 (centres undefined) | 96 | -13 | 117 | 89 |
| O=[N+]([O-])c1ccc(Nc2nc(N3CCOCC3)nc(N3CCOCC3)n2)cc1 | 97 | -18 | · | · |
| CCCCn1c(=O)c2c(nc3n2CCS3)n(C)c1=O | 106 | -17 | · | · |
| O=C(O)Cn1cnc2c([nH]c3ccc(F)cc32)c1=O | 98 | -22 | · | · |
| CCOC(=O)c1ccccc1NC(=O)c1cc2c(s1)-c1ccsc1CC2 | 105 | -11 | · | · |
| NC(=O)c1c(NC(=O)CS(=O)(=O)c2ccc(Cl)cc2)sc2c1CCCCC2 | 104&104 | · | 101 | 62 |
| COC(=O)c1ccc(Cn2cnc3nc4c(cc3c2=O)CCCC4)cc1 | 102 | · | 97 | 90 |
| CN(C)C(CNC(=O)c1ccc2ccccc2n1)c1ccccc1 (centres undefined) | · | -26 | 102 | 94 |
| CCCn1c(N)c(C(=O)CSC2=NC(C(C)C)C(=O)N2c2ccc(C)cc2)c(=O)n(C)c1=O (centres undefined) | · | 13 | 109 | 103 |
| CCN(CC)S(=O)(=O)N1CCC(C(=O)NCc2ccccc2Cl)CC1 | 99 | 7 | 101 | 86 |
| COc1ccccc1NC(=O)Cn1c(=O)n(Cc2ccc(F)cc2)c(=O)c2cccnc21 | 102 | 2 | 94 | 86 |
| Cc1[nH]c(=O)[nH]c(=O)c1S(=O)(=O)N1CCOCC1 | 103 | -12 | · | · |
| CC1CCCC(NC(=O)CSc2nccn2C)C1C (centres undefined) | · | -12 | 99 | 90 |
| COCCNC(=S)N1c2ccccc2CC1C (centres undefined) | · | -6 | 101 | 88 |
| CCCCC(=O)N(c1ccc(OC)cc1)C1C=CS(=O)(=O)C1 (centres undefined) | 95 | · | 99 | 96 |
| CCOC(=O)c1c(C)noc1-c1csc(Nc2c(C)cc(C)cc2C)n1 | 101 | · | 91 | 90 |
| Cc1nc2c3ccccc3n3c(CCCC(=O)NCCc4ccccc4)nnc3n2n1 | 101&104 | 3&-36 | 97 | 85 |
| O=C(OCCN1C(=O)c2cccc3c(N4CCCCC4)ccc(c23)C1=O)c1cccc([N+](=O)[O-])c1 | 107 | -9 | · | · |
| O=C(Nc1ccc(F)cc1)C1(c2ccccc2)CCOCC1 | 98 | -11 | 87 | 88 |
| CCn1c(SCC(=O)c2ccccc2)nnc1-c1ccco1 | 99 | -14 | 96 | 55 |
| CCOc1ccccc1NC(=O)CCc1c(C)nc2c(c(C)nn2-c2ccccc2)c1C | 100 | -2 | 110 | 86 |
| Cc1cccc(C(=O)Nc2ccc3c(c2)CC(=O)N3C)c1 | 103 | -30 | · | · |
| N#CCSc1nc2sc3c(c2c(=O)[nH]1)CCCC3 | 102 | -22 | 95 | 85 |
| CCCNC(=O)Nc1cccc(-c2noc(-c3ccc(F)cc3)n2)c1 | 109 | 12 | · | · |
| CCc1c(C)nc2c(OC)cccc2c1Cl | 102 | -27 | 95 | 88 |
| Cc1cc2nc3s/c(=C/c4cc([N+](=O)[O-])c(N5CCOCC5)cc4N4CCOCC4)c(=O)n3c2cc1C | 106 | -15 | · | · |
| CC(=O)c1cccc(NC(=O)CCc2c(C)nc3c(c(C)nn3-c3ccccc3)c2C)c1 | 101 | -18 | 104 | 82 |
| Cc1cc(C)n(-c2nc3ccccc3nc2Sc2nc3ccccc3s2)n1 | 100 | -12 | 94 | 66 |
| Cc1cccc(NC(=O)c2cccs2)n1 | 108 | -2 | 117 | 83 |
| COCC(=O)Nc1ccc(Cl)cc1OCc1cc(=O)n2oc(C)cc2n1 | 99 | 10 | · | · |
| COc1ccc(CCn2c(=O)c3cccnc3n(CC(=O)Nc3c(C)cccc3C)c2=O)cc1OC | 106 | -25 | 121 | 87 |
| CC(=O)Nc1ccc(S(=O)(=O)N=S(C)(C)=O)cc1 | · | 1 | 100 | 94 |
| CCOc1ccc(OCC)c(NC(=O)CCc2c(C)nc3c(c2C)c(=O)n(C)c(=O)n3C)c1 | 109 | -33 | 99 | 91 |
| CSc1ncc(C(=O)NCCc2ccccc2)c(C(F)(F)F)n1 | 108 | -20 | 104 | 97 |
| COc1cc(OC)cc(C(=O)Nc2nc(CC(=O)Nc3nc4ccccc4s3)cs2)c1 | 108 | -28 | · | · |
| O=C(NCc1ccc(Br)cc1)C1CCCN(c2ccnc(-c3cccc(F)c3)n2)C1 (centres undefined) | 103 | 1 | · | · |
| COC(=O)Oc1ccc2c(=O)c(-c3ccccc3)coc2c1 | 100 | · | 105 | 96 |
| Cc1cccc(N2C(=O)CNC2=S)c1 | 105 | -7 | 110 | 103 |
| CCC1SC(NC(=O)COc2ccc(OC)cc2)=NC1=O (centres undefined) | 103 | 23 | 83 | 97 |
| Cc1nc(SCc2nc(-c3ccc(Cl)cc3)oc2C)[nH]c(=O)c1C | 107 | -3 | · | · |
| O=C1CSC2(C(=O)N(Cc3ccccc3)c3ccccc32)N1c1ccc(Cl)cc1 (centres undefined) | 102 | · | 89 | 97 |
| Cc1ccc(S(=O)(=O)NC(CO)C(=O)O)cc1 (centres undefined) | 103 | 10 | 78 | 95 |
| COc1ccc(C2=NS(=O)(=O)N(C)C(C(=O)NCc3ccccc3)=C2)cc1OC | 109 | -44 | 80 | 71 |

Remaining list, next part.
| canonical_smiles | GIV-Gai inh | HCMV NEC inh | Sa growth 42C | Sa growth 42C second temp |
| --- | --- | --- | --- | --- |
| O=C(NCC(c1ccc2c(c1)OCO2)N1CCOCC1)C(=O)Nc1ccc(Cl)cc1 (centres undefined) | 102 | · | 87 | 91 |
| CCCNC(=O)CSc1cn(CC(=O)N2CCCCCC2)c2ccccc12 | 103 | · | 91 | 84 |
| O=P(CO)(c1ccc(Cl)cc1)c1ccc(Cl)cc1 | 101 | -11 | 107 | 102 |
| COCCn1c(C)cc(O)c(C(c2ccc(F)cc2)N2CCN(c3ccccc3)CC2)c1=O (centres undefined) | 91 | · | 78 | 89 |
| CN(C)C=Nc1nc2ccccc2nc1N1CCOCC1 | · | -36 | 76 | 82 |
| CCCC(=O)Nc1ccc(N)cc1 | · | -11 | 87 | 103 |
| CCCN(CCC)CCCNC(=O)Cn1ncc2c3ccccc3n(Cc3ccc(F)cc3)c2c1=O | 105 | -17 | 104 | 86 |
| CC(C)c1csc2nc3n(c(=O)c12)CCCCC3 | 105 | -8 | 98 | 92 |
| CCOC(=O)c1cc(-c2ccc(F)cc2)n(CCC(=O)Nc2nc3ccc(OC)cc3s2)c1C | 102 | · | 109 | 102 |
| CC(Cn1cnc2ccccc21)C(=O)N/N=C/c1ccccc1 (centres undefined) | 96 | 5 | 110 | 94 |
| COC(=O)c1ccc(NC(=O)CSc2cn(CC(=O)N3CCCCC3)c3ccccc23)cc1 | 112 | · | 115 | 85 |
| Cc1[nH]c2ccc(C(=O)O)cc2c1CC(=O)O | 102 | · | 94 | 92 |
| O=C(NCc1ccc(Cl)cc1)C1Nc2cc(F)ccc2S(=O)(=O)N1 (centres undefined) | 107 | 2 | · | · |
| CCOC(=O)c1c(C)oc2c(Br)cc(NS(=O)(=O)c3ccc4ccccc4c3)cc12 | 106 | -16 | · | · |
| O=C(Nc1cccc(Cl)c1)c1nn(-c2ccc(Cl)cc2)c(=O)c2ccccc12 | 100 | 0 | 82 | 96 |
| CCN(CC)C(=O)Cn1nnc(-c2ccc(C)cc2)n1 | · | 5 | 87 | 102 |
| COC(=O)c1cccc(Cn2nc(C)c(Cl)c2C)c1 | 105 | -36 | 88 | 89 |
| CCCN1C(=O)C(Cc2nc3ccccc3c(=O)n2C)c2ccccc21 (centres undefined) | 100 | -21 | 88 | 81 |
| Nc1c(S(=O)(=O)c2ccccc2)c2nc3ccccc3nc2n1-c1ccc2c(c1)OCO2 | · | -28 | 102 | 100 |
| O=C(Cn1cc(S(=O)(=O)N2CCCC2)c(S(=O)(=O)N2CCCC2)c1)Nc1ccc(F)cc1 | 101 | · | 111 | 92 |
| CC1=C(C(=O)Nc2cc(C(F)(F)F)cc(C(F)(F)F)c2)SCCO1 | 101 | 2 | 105 | 89 |
| CCCn1c(=O)c2ccccc2n2c(=O)n(CC(=O)c3cccc(OC)c3)nc12 | 99 | -16 | · | · |
| O=c1[nH][nH]c(=S)n2nc(-c3ccccc3)cc12 | 97 | -1 | 80 | 78 |
| O=S1(=O)C=C(N2CCOCC2)c2ccccc21 | · | -9 | 95 | 86 |
| CCC(=O)Nc1c(C(=O)N2CCN(c3ccc(F)cc3)CC2)oc2ccccc12 | 102 | · | 84 | 93 |

Among those listed so far, these have an NH in an aromatic ring:
| canonical_smiles | GIV-Gai inh | HCMV NEC inh | Sa growth 42C | Sa growth 42C second temp |
| --- | --- | --- | --- | --- |
| O=C(O)Cn1cnc2c([nH]c3ccc(F)cc32)c1=O | 98 | -22 | · | · |
| Cc1[nH]c(=O)[nH]c(=O)c1S(=O)(=O)N1CCOCC1 | 103 | -12 | · | · |
| N#CCSc1nc2sc3c(c2c(=O)[nH]1)CCCC3 | 102 | -22 | 95 | 85 |
| Cc1nc(SCc2nc(-c3ccc(Cl)cc3)oc2C)[nH]c(=O)c1C | 107 | -3 | · | · |
| Cc1[nH]c2ccc(C(=O)O)cc2c1CC(=O)O | 102 | · | 94 | 92 |
| O=c1[nH][nH]c(=S)n2nc(-c3ccccc3)cc12 | 97 | -1 | 80 | 78 |

(cont.)
| canonical_smiles | GIV-Gai inh | HCMV NEC inh | Sa growth 42C | Sa growth 42C second temp |
| --- | --- | --- | --- | --- |
| O=C(O)C(Sc1nncc(-c2ccccc2)n1)c1ccccc1 (centres undefined) | 99 | -108 | 96 | 82 |
| O=c1[nH]c2ccc(Cl)cc2c(-c2ccccc2)c1NCN1CCOCC1 | · | -26 | 85 | 30 |
| COC(OC)c1ccc(C#N)c(SCC(=O)Nc2ccccc2)n1 | 102 | -7 | 105 | 49 |
| COc1ccc(-n2c(=O)c3sc4ccccc4c3n(Cc3ccccc3)c2=O)cc1 | 101 | -38 | 116 | 85 |
| COc1ccccc1N(CC(=O)Nc1c(C)n(C)n(-c2ccccc2)c1=O)S(=O)(=O)c1ccccc1 | 99 | -2 | · | · |
| COc1cc2c(cc1OC)C1CC(=O)N(CCc3ccccc3)C(=O)N1CC2 (centres undefined) | 103 | -12 | · | · |
| N/C(=N\O)c1cccc(CSc2ccccn2)c1 | 103 | -1 | 105 | 85 |
| O=C(C1CCN(c2ccc(-c3cccc(F)c3)nn2)CC1)N1CCC(N2CCCCC2)CC1 | 99 | -48 | · | · |
| CCN(Cc1ccccc1)Cc1c(O)ccc2c(=O)c(-c3ccc(Cl)cc3)coc12 | 101 | 0 | 102 | 96 |
| CC1CCCC(C)N1C(=O)CSc1nc2ccccc2n1CC(=O)NC1CCCC1 (centres undefined) | 104 | -14 | 103 | 99 |
| CCOC(=O)c1sc2[nH]c(C(C)(C)C)cc(=O)c2c1C | · | 6 | 109 | 100 |
| Cc1ccc(NC(=O)Cn2c(=O)n(Cc3ccco3)c(=O)c3ccccc32)cc1 | 102 | 2 | 105 | 84 |
| O=c1cnc2ccccc2n1CCOc1ccc(Br)cc1 | · | -1 | 89 | 95 |
| COc1ccc(-c2cc(-c3ccc4c(c3)NC(=O)CO4)nc3c2COc2ccc(F)cc2-3)cc1 | 105 | -10 | 92 | 88 |
| COC(=O)c1ccc(NC(=O)C(=O)NCCc2sc3nc(-c4ccc(OC)cc4)nn3c2C)cc1 | 93 | · | 129 | 90 |

Four records drawn at random from those above, as already listed:
| canonical_smiles | GIV-Gai inh | HCMV NEC inh | Sa growth 42C | Sa growth 42C second temp |
| --- | --- | --- | --- | --- |
| O=C(Cn1cc(S(=O)(=O)N2CCCC2)c(S(=O)(=O)N2CCCC2)c1)Nc1ccc(F)cc1 | 101 | · | 111 | 92 |
| CCCCn1c(=O)c2c(nc3n2CCS3)n(C)c1=O | 106 | -17 | · | · |
| COCCn1c(C)cc(O)c(C(c2ccc(F)cc2)N2CCN(c3ccccc3)CC2)c1=O (centres undefined) | 91 | · | 78 | 89 |
| CCN(Cc1ccccc1)Cc1c(O)ccc2c(=O)c(-c3ccc(Cl)cc3)coc12 | 101 | 0 | 102 | 96 |

4 structures out of the list, sorted by number of heavy atoms, low to high.
| canonical_smiles | GIV-Gai inh | HCMV NEC inh | Sa growth 42C | Sa growth 42C second temp |
| --- | --- | --- | --- | --- |
| Cc1cccc(N2C(=O)CNC2=S)c1 | 105 | -7 | 110 | 103 |
| O=C(O)Cn1cnc2c([nH]c3ccc(F)cc32)c1=O | 98 | -22 | · | · |
| CC(=O)Oc1ccc2cc(-c3nnc(-c4ccccc4)o3)c(=O)oc2c1 | 173 | -32 | · | · |
| COc1cc(OC)cc(C(=O)Nc2nc(CC(=O)Nc3nc4ccccc4s3)cs2)c1 | 108 | -28 | · | · |
